# Rango-impB inh: Rango-importin beta binding inhibition | 340,000 compounds, 0.031% hits | Potency, µM (doses to about 92.2 µM), inactives show at the highest dose inhibition of complex formation | Rango CFP/YFP FRET sensor + importin beta, 45 min; active = rising FRET ratio curve, often small or poorly fitted; inconclusive = mostly compound fluorescence or quenching in the first reads; inactive = flat curves in all reads;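 further: potency means the concentration at half of the fitted maximal effect; 0% = DMSO wells and 100% = buffer wells lacking importin beta; nearly all actives have a fitted effect of over 15% in size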
#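 Inhibition scored from the CFP 486 nm/YFP 530 nm FRET ratio 45 min after adding 0.125 microM importin beta to 50 nM Rango biosensor preincubated 5 min with compound (room temperature, PBS with DTT, Tween-20, BSA). No-importin wells as positive control.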
# miR-21 FLuc: miR-21 reporter, rising signal; HeLa miR-21 FLuc reporter, luciferase, 48 h; Potency, µM (highest dose often 38.3 µM), for the others: at the highest dose reporter change, positive = more light; 340,000 tested, under 10 active; AID 2288; active = well fitted rising curve with a large enough effect; inconclusive = small, poorly fitted or top-dose-only effect; inactive = no such curve, though single readings can be large or run the other way;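 further: % of control where 0% means no effect; miR-21 action dims this reporter so a rising signal means less miR-21 action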
#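 Using DMEM plus 10% FBS, HeLa miR-21-FLuc cells are incubated with test compounds (final up to about 40uM) for 48 hours; firefly luciferase signal is then imaged following reagent-mediated lysis.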
# GLA inh pH 4.5: inhibitors of human alpha-galactosidase A at pH 4.5; P06280; purified enzyme, 4-MU-alpha-Gal fluorescence, pH 4.5; activity change, negative = inhibition, % at 105 µM; 230,000 tested, under 10 active; inconclusive = small, poorly fitted or top-dose-only inhibition, or a rising curve; inactive = flat fitted curve, though single readings scatter; no compound was filed as active;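 further: 0% = full activity with enzyme and -100% = basal without enzyme; dose as in the result columns while the protocol names 77 µM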
# Target sequence (P06280 whole entry, looked up): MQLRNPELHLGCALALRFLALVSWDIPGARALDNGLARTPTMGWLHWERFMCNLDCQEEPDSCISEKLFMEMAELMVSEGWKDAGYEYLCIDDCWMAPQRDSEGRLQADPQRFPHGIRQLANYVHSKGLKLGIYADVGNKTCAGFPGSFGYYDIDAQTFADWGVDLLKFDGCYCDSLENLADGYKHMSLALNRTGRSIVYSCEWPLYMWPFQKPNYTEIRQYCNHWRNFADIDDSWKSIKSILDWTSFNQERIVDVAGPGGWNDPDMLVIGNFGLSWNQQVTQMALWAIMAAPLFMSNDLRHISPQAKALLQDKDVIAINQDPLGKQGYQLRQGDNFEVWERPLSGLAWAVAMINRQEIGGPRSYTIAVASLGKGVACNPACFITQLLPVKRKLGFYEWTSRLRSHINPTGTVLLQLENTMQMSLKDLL
# Rango dissoc inh: inhibition of RanGTP-driven Rango-importin beta dissociation; Biochemical FRET Rango-importin beta, RanGTP-induced dissociation; Potency, µM (top dose mostly 46.1 µM), for inactives: at the top dose activity change, negative = inhibition; 340,000 compounds, 0.071% hits; AID 540253; active means falling FRET ratio curve, often poorly fitted, with flat reads before Ran was added; inconclusive means other falling curves, or compound fluorescence or quenching; inactive means flat or rising ratio curve;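 further: potency means the concentration at half of the fitted maximal effect; % of control where 0% means no effect; nearly all actives have a fitted effect of over 45% in size; -100% = wells without RanGTP and RCC1; the record marks most hits as doubtful in a second field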
#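 Compounds sat 5 min at room temperature with 0.1 uM Rango biosensor plus 0.25 uM importin beta, then FRET pre-read. RanGTP-RCC1 (0.6 uM Ran, 2mM GTP, 0.2 uM RCC1) added for 45 min, and the CFP/YFP post-read measured blocked complex dissociation.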
# An asterisk follows results filed as active; ? = inconclusive; . = no result given; & = joins results of further samples; [ ] = another dose, or the depositor's remark. This is a subset, so the mix of outcomes need not match the whole.
# Results follow in this order: miR-21 FLuc, Rango-impB inh, GLA inh pH 4.5, Rango dissoc inh
COC(=O)Cn1c(=NC(=O)c2ccc(OC)c(OC)c2)sc2cc(OC)ccc21
  -7%, 0.9%, 1, -6%
O=C(O)c1ccccc1-c1nc2ccccc2[nH]1
  -13%, -3.0%, 2, -10%
COC(=O)Nc1ccc(S(=O)(=O)N2CCCC(C(=O)N3CCCCCC3)C2)cc1 (centres undefined)
  4%, 4.7%, 3, 9%
O=C(COC(=O)C1CC2C=CC1C2)NCc1ccco1 (centres undefined)
  0%, -2.5%, 1, 0%
CCC(=O)N(CCC(c1ccco1)C(C)C)Cc1ccccc1 (centres undefined)
  1%, 4.0%, -10, 0%
Cc1nn(C(C)C(=O)O)c(C)c1[N+](=O)[O-] (centres undefined)
  -3%, 0.3%, 1, -8%
COc1cc(S(=O)(=O)N2CCOCC2)cc(C(=O)NCC(c2cccs2)N2CCOCC2)c1OC (centres undefined)
  ., -0.8%, ., ?
Cc1ccc(CCNC(=O)C2CCCN(S(=O)(=O)N3CC(C)CC(C)C3)C2)cc1 (centres undefined)
  2%, -1.7%, ., -7%
COC(=O)c1cc(C#N)c(NCc2ccc(Cl)cc2Cl)nc1C
  -1%, -0.5%, 0, 1%
O=C(Oc1cccc2ccccc12)C1CC1
  1%, -3.6%, ., 7%
CN(C)c1nc(NCc2ccccc2)nc(N/N=C/c2ccccc2F)n1
  2%, ., 1, .
Cc1nc2cc(N3CCCCC3)c(NC(=O)c3cccnc3)cc2c(=O)n1Cc1ccccc1
  -22%, 2.3%, 5, -2%
Cn1ccnc1SCC(=O)c1cc2ccccc2o1
  -45%, ?, 1, -2%
COc1ccc(-c2ccc(CCC(=O)O)n2NC(N)=O)cc1
  6%, -0.2%, 3, ?
O=[N+]([O-])c1ccc(N2CCCCC2)cc1SCCO
  4%, -0.9%, -2[21.1 µM], 12%
O=C1C(=O)C(c2ccccc2)C(=O)C1c1ccccc1 (centres undefined)
  ., 2.3%, ., 2%
COc1cc2c(cc1OC)C(c1cccc([N+](=O)[O-])c1)N(C(=O)c1ccccc1C(=O)O)CC2 (centres undefined)
  -3%, 0.3%, 3, 10%
COc1ccc(-c2nnn(CCC(=O)O)n2)cc1
  14%, -2.2%, -3, -4%
CCc1ccc(-c2cc3c(=O)n(CC(=O)NCCN4CCCCC4C)nc(C)n3n2)cc1 (centres undefined)
  -1%, 0.2%, ., 1%
O=[N+]([O-])c1ccc(N2CCN(c3ccccc3F)CC2)nc1
  -6%, -2.8%, ., -1%
O=C(/C(C=Nc1ccc(Br)cc1)=C(/O)c1ccco1)C(F)(F)F
  -40%, ?, -3, ?
COC(=O)c1c(C)cccc1C1CN=NC12Cc1ccccc1C2=O (centres undefined)
  ., -1.6%, ., -2%
CCOc1cc(NC(=S)N2CCC(C(N)=O)CC2)c(C(=O)OC)cc1OCC
  -1%, 2.2%, -4, -1%
COC(=O)CC1Oc2ccccc2N(Cc2ccccc2)C1=O (centres undefined)
  -3%, 0.1%, -3, 12%
O=C(CSc1ncn[nH]1)Nc1nnc(-c2ccccc2)s1
  -37%, -0.5%, -7, -2%
CC(C)CN1C(=O)/C(=C/c2ccco2)NC1=S
  -7%, -4.9%, 0, -12%
CCCCCC1CC(CC#CCN2CCOCC2)C(=O)O1 (centres undefined)
  -7%, 0.0%, 6, -7%
O=C(NNC(=O)c1ccccc1O)c1cccc(Br)c1
  -19%, -1.5%, ., -15%
CC(=O)c1c(N2CCN(C)CC2)nc(=S)n(Cc2ccccc2)c1C
  1%, -2.2%, 6, -7%
CCc1cc(=O)oc2c(C)c(OCC(=O)NCCN3CCOCC3)ccc12
  -7%, 1.8%, ., 9%

# Results follow in this order: miR-21 FLuc, Rango-impB inh, GLA inh pH 4.5, Rango dissoc inh
COc1cccc(NC(=O)CN(C)C(=O)c2ccc(COc3ccccc3)cc2)c1
  ., -0.2%, ., 0%
C=C(C1=CCN(S(=O)C(C)(C)C)[C@H]1CCO)c1ccccc1 (some centres undefined)
  ., 0.4%, ., 7%
CC(=O)CSc1cc(C)nc2c(-c3ccccc3)c(C)nn12
  -1%, ?, -13, -1%
CC(=NCc1cccnc1)C1=C(O)c2ccccc2C1=O
  -21%, -1.6%, -2, -9%
COc1ccc(CNC(=O)/C=C/c2cc([N+](=O)[O-])ccc2OC(F)F)cc1OC
  -6%, -1.3%, 11, -21%
CC(C)CCNC(=O)CN(Cc1ccco1)C(=O)c1snc(C(N)=O)c1N
  2%, -0.2%, -4, 0%
Cc1[nH]nc(SCC(=O)NCc2ccc(Cl)cc2)c1[N+](=O)[O-]
  -5%, 0.4%, 0, -9%
CCNS(=O)(=O)c1ccc(CCC(=O)N2CCN(C(=O)OCC)CC2)cc1
  0%, 1.8%, ., -12%
COC(=O)[C@H](C)NC(=O)NCc1ccccc1
  -1%, -0.9%, -5, 20%
c1ccc(COc2ccccc2CNC2CCCC2)cc1
  2%, -2.2%, -2, 6%
COc1ccccc1NCC(O)COc1ccc(C(C)(C)C)cc1 (centres undefined)
  -6%, 0.3%, -6, 14%
CC(C)c1ccc(C2(O)C(=O)Nc3cc(Br)ccc32)c(O)c1 (centres undefined)
  6%, -3.6%, ., 16%
Cc1cccc(NC(=O)NCC(c2ccc(F)cc2)N2CCN(C)CC2)c1 (centres undefined)
  -36%, 0.5%, ., 0%
CSc1ccc(CN2CCc3c([nH]c4ccccc34)C2)cc1
  1%, 1.2%, ., 19%
CC(=O)N1c2ccc3ccccc3c2C(C)CC12CCCCC2 (centres undefined)
  1%, -2.3%, -10, -9%
COc1ccc(OC)c(NCc2nnc(-c3ccccc3)o2)c1
  -17%, 0.8%, ., 4%
CCCN1C(=O)/C(=C/c2ccc(OCc3ccc(C(=O)O)cc3)c(OC)c2)NC1=S
  ., ?, ., ?
COc1ccc(-c2cn(CCO)c(-c3ccc(Cl)nc3)n2)cc1
  ., 5.6%, ., -9%
Cc1cc(C)nc(CCNC(=O)C2CCC(=O)N(Cc3ccccc3F)C2)n1 (centres undefined)
  0%, 1.4%, ., 0%
CSc1ncccc1C(=O)OCC(=O)NC(C)CCc1ccccc1 (centres undefined)
  ., 4.7%, ., -7%
COc1ccc(/C=C/C(O)=C2/C(=O)N(C)C3(C)CC2c2ccccc2O3)cc1 (centres undefined)
  -5%, ?, 3, -7%
COc1ccccc1NS(=O)(=O)c1cc(NC(=O)CCc2nc3ccccc3c(=O)[nH]2)ccc1C
  ., 0.2%, ., -2%
CS(=O)(=O)c1ccc(C(=O)Nc2ccccc2N2CCOCC2)c(Cl)c1
  -1%, 3.5%, 6, 4%
CCC(C(=O)OCC(=O)NCc1ccc2c(c1)OCO2)c1ccccc1 (centres undefined)
  ., -11%, ., 6%
CC1CCc2nc(/C(C#N)=C/c3ccncc3)sc2C1 (centres undefined)
  -35%, ?, 12, ?
O=C(CN1CCN(c2ccccc2)CC1)Nc1cccc([N+](=O)[O-])c1
  1%, 0.7%, 5, 6%
CCN(Cc1nc2ccccc2c(=O)[nH]1)C(=O)c1cc2c(s1)CCCCC2
  ., 2.4%, ., 6%
CC(C)CC(CO)N1CCN(C(=O)c2ccccc2)CCC1=O (centres undefined)
  ., -1.2%, ., 2%
Cc1n[nH]c(=O)c2c(NC(=O)CSc3nc4ccccc4c(=O)n3CCCO)oc(C)c12
  -5%, -0.2%, ., -9%
CCCCOC(=O)c1ccc(NC(=O)C(=O)NCC2CCCO2)cc1 (centres undefined)
  -5%, -2.9%, 4, -9%

# Some entries already given, reduced to miR-21 FLuc, GLA inh pH 4.5 and Rango-impB inh.
Compound	miR-21 FLuc	GLA inh pH 4.5	Rango-impB inh
COc1ccc(OC)c(NCc2nnc(-c3ccccc3)o2)c1	-17%	.	0.8%
CCCN1C(=O)/C(=C/c2ccc(OCc3ccc(C(=O)O)cc3)c(OC)c2)NC1=S	.	.	?
COc1ccc(-c2cn(CCO)c(-c3ccc(Cl)nc3)n2)cc1	.	.	5.6%
Cc1cc(C)nc(CCNC(=O)C2CCC(=O)N(Cc3ccccc3F)C2)n1 (centres undefined)	0%	.	1.4%
CSc1ncccc1C(=O)OCC(=O)NC(C)CCc1ccccc1 (centres undefined)	.	.	4.7%

# (list continues)
# Results follow in this order: miR-21 FLuc, Rango-impB inh, GLA inh pH 4.5, Rango dissoc inh
Oc1ccccc1CNc1cnc2ccccc2c1
  -41%, -3.1%, 0, 1%
CCc1ccc(NC(=O)C(NS(=O)(=O)c2cccc3nsnc23)c2ccccc2)cc1 (centres undefined)
  -9%&-13%, -0.1%, 4, 11%
ClC1(Cl)CC1Cn1cnc2ccccc21 (centres undefined)
  -4%, 1.3%, -7, 4%
COc1cc(NC(=O)C2CC2)c(OC)cc1NC(=O)CCC(=O)NC1CCN(Cc2ccccc2)CC1
  -6%, ?, -27, 1%
CCOCCCNC(=O)C1CCC(CNS(=O)(=O)c2ccc(Cl)cc2)CC1 (centres undefined)
  -3%, 0.3%, 0, -11%
N#Cc1nccnc1N1CCN(C(=O)Nc2ccccc2)CC1
  -7%, -2.0%, -2, -9%
CCC(CC)C(=O)N1CCN(Cc2nc3ccccc3c(=O)[nH]2)CC1
  1%, -0.8%, 7, 1%
COc1ccc(CCNC(=O)CCC(=O)Nc2ccc3nc(N4CCN(C)CC4)cc(C)c3c2)cc1OC
  -11%, -2.4%, 12, 10%
CC12CCC(C(=O)N(NC(=O)c3ccc(O)cc3)C1=O)C2(C)C (centres undefined)
  1%, 4.8%, -3, 2%
COc1cccc(-c2nc(NC(C)C)c3ccccc3n2)c1O
  16%, 2.2%, -25, -1%
CCc1nnc(NC(=O)CCc2c[nH]c3ccccc23)s1
  -2%, 0.7%, 7, 12%
Cc1ccc(S(=O)(=O)N2CCC(C(=O)NC3CC(C)(C)NC(C)(C)C3)CC2)cc1C
  -3%, 7.2%, ., 8%
COc1ccccc1-c1nc(C#N)c(N2CCN(c3cccc(Cl)c3)CC2)o1
  -9%, -0.1%, 15, 5%
O=C1CCC/C(=N\NC(=O)c2ccc(COc3ccccc3-c3ccccc3)cc2)C1
  2%, -8.3%, -9, -5%
N#Cc1c(N)n(CCc2ccc(F)cc2)c2nc3ccccc3nc12
  1%, ?, ?, ?
CC1(C)Oc2ccc3ccc(=O)oc3c2C[C@H]1O[C@@H]1O[C@H](CO)[C@@H](O)[C@H](O)[C@H]1O
  ., 1.1%, ., -24%
CC(C)(C)c1nnc(N/N=C/c2cc(Br)ccc2O)n(N)c1=O
  26%, -0.6%, -13, 3%
O=C(CCCOc1ccc(Cl)cc1Cl)N1CCN(c2ccccn2)CC1
  -34%, 1.1%, 7, 1%
Cc1ccc(-n2nc3c(c2NC(=O)C(C)(C)C)CSC3)c(C)c1
  -8%, 1.8%, -6, 6%
O=C(N/N=C/c1c[nH]c2ccccc12)c1cc(-c2cccc3ccccc23)n[nH]1
  0%, 0.6%, 1, -14%
O=C(OCC(=O)c1c[nH]c2ccccc12)c1ccc(Br)o1
  -14%, 1.9%, 0, -1%
COc1ccc(C(=O)CSc2nnc3ccc(-c4ccccn4)nn23)cc1
  0%, 3.8%, -4, 4%
O=C(O)c1cc2cc(F)ccc2[nH]1
  -8%&0%, 3.3%, 2&-10&-1&-3, -5%
O=C(/C=C1\SC(=O)N(CC(=O)Nc2ccc(F)cc2)C1=O)Nc1ccc(Cl)cc1
  -49%, -0.8%, -3, 8%

# 3 compounds out of the list above, sorted by the value under GLA inh pH 4.5, largest number first:
# Results follow in this order: miR-21 FLuc, Rango-impB inh, GLA inh pH 4.5, Rango dissoc inh
Oc1ccccc1CNc1cnc2ccccc2c1
  -41%, -3.1%, 0, 1%
c1ccc(COc2ccccc2CNC2CCCC2)cc1
  2%, -2.2%, -2, 6%
ClC1(Cl)CC1Cn1cnc2ccccc21 (centres undefined)
  -4%, 1.3%, -7, 4%

# Individual results from the entries so far.
# Entry of `O=C(CCCOc1ccc(Cl)cc1Cl)N1CCN(c2ccccn2)CC1` in Rango dissoc inh: 1%
# Entry of `Cc1ccc(S(=O)(=O)N2CCC(C(=O)NC3CC(C)(C)NC(C)(C)C3)CC2)cc1C` in Rango dissoc inh: 8%
# Entry of `CC1(C)Oc2ccc3ccc(=O)oc3c2C[C@H]1O[C@@H]1O[C@H](CO)[C@@H](O)[C@H](O)[C@H]1O` in Rango-impB inh: 1.1%
# Entry of `O=C(N/N=C/c1c[nH]c2ccccc12)c1cc(-c2cccc3ccccc23)n[nH]1` in Rango-impB inh: 0.6%

# Source: PubChem BioAssay
